KCNQ2 block – KCNQ2 potassium channel inhibitors, primary screen, cell-based, CHO-K1, FluxOR thallium flux, B-score (AID 2156) | Potassium voltage-gated channel subfamily KQT member 2 (Rattus norvegicus), O88943 | 310,000 tested, 1.1% active | B-score at 10 µM | 20 min; active compounds read low; only compounds with negative scores are shown here; some inactives read as strong as hits;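 active = fluorescence ratio B-score at most minus 3 library SDs, with starting brightness B-score within 2 library SDs, cut at about -5.5 in these data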
Target sequence (O88943 whole entry, looked up): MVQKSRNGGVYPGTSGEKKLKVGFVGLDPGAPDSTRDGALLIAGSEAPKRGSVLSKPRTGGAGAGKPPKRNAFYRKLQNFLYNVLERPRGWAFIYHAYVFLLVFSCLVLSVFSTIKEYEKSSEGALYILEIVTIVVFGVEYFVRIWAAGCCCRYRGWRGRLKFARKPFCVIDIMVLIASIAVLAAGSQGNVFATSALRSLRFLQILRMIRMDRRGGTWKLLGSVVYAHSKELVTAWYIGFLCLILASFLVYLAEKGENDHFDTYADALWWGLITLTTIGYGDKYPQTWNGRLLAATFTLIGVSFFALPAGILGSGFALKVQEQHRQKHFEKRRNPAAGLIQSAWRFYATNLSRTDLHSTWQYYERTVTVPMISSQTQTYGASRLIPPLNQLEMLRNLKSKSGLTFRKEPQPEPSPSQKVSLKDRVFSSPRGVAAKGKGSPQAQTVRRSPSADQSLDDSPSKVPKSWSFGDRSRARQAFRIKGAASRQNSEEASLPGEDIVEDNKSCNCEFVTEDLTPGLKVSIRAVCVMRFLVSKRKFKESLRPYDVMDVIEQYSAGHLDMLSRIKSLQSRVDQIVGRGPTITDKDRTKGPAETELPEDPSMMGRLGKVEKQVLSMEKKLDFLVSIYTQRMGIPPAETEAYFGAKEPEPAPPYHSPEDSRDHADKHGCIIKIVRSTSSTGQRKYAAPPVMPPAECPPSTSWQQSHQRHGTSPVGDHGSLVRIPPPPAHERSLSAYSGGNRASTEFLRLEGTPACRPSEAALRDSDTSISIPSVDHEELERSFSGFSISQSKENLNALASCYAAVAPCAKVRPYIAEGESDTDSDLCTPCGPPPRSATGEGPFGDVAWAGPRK
KCNQ2 block baseline – further read-out of KCNQ2 block, marked with its call; B-score; measured here: initial fluorescence intensity artifact check;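 brightness before thallium and not channel activity; 0 = typical well and far values either way flag optical interference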
* hit, by the source's call; i = inactive. A portion of the library; rates above refer to the full screens.

cpd	canonical_smiles	KCNQ2 block baseline	KCNQ2 block
1	Cc1cc(=O)n2nc(N3CCCC(C(=O)NC4CCCCC4C)C3)sc2n1 (stereo not given)	-0.34	i
2	O=[N+]([O-])c1ccc(N2CCN(Cc3ccccc3)CC2)c(S(=O)(=O)N2CCOCC2)c1	0.51	i
3	CC(=O)c1ccc(NC(=S)NNC(=O)c2ccncc2)cc1	1.69	i
4	CCOC(=O)C1CCCN(C(c2ccccn2)c2c(C)[nH]c3ccccc23)C1 (stereo not given)	1.79	i
5	OC(COc1ccc2ccccc2c1)Cn1cncn1 (stereo not given)	-0.22	i
6	CC1CCN(c2nc(/C=C/c3ccccc3)nc3ccccc23)CC1	-0.08	i
7	CCSC1=NCCN1C(=O)c1c(-c2ccccc2Cl)noc1C	-0.96	i
8	CCOc1cc(/C=C2\SC(=S)N(NS(=O)(=O)c3ccc(C)cc3)C2=O)ccc1O	1.33	i
9	Cc1ccc(C(=O)N/N=C/c2sc(=O)n(Cc3cccc(C(=O)O)c3)c2Cl)cc1	1.45	i
10	Cc1ccc(C2SCC(C(=O)O)N2C(=O)c2ccc(F)cc2)cc1 (stereo not given)	1.14	i
11	O=C(COc1ccccc1)Nc1nc(-c2cccs2)cs1	1.33	i
12	CCCCn1ccnc1C(=O)c1cccc(S(=O)(=O)N2CC(C)CC(C)C2)c1 (stereo not given)	-0.14	i
13	CCc1c(-c2ccccc2)nc(N)c(C#N)c1-c1cccs1	-0.69	i
14	COc1ccc(S(=O)(=O)NNC(N)=S)cc1	1.8	i
15	O=c1cc(Nc2ccc3c(c2)OCCO3)[nH]c(=O)n1Cc1ccc(F)cc1	-0.16	i
16	Cc1c(-c2cc(C(=O)O)on2)cnn1C	0.52	i
17	CCn1nnnc1NCc1ccc(SC)cc1	0.58	i
18	Cc1cc(-c2ccccc2)nc2cc(C(=O)OC(C)C)nn12	-2.02	i
19	O=C(Nc1cccc(-c2cccc(F)c2)c1)C1CCN(C2CCC2)CC1	1.79	i
20	O=C(CSc1n[nH]c(=O)[nH]c1=O)c1ccc(Cl)cc1Cl	0.75	i
21	NC(=S)NNC(=O)/C(=C/c1ccc(Br)cc1)NC(=O)c1ccccc1	-0.54	i
22	COc1cc(NC(=O)c2nccnc2C(=O)O)cc(OC)c1	-1.03	i
23	CCOC(=O)C(C(=O)OCC)N(C#N)c1nc(C)cc(C)n1	1.45	i
24	CCOc1ccc(/C=N/Nc2nncc(-c3ccccc3)n2)cc1OC	1.58	i
25	Cn1cnnc1SCC(=O)NCCc1ccc(Cl)cc1Cl	0.05	i

Taken from above.
KCNQ2 block baseline result of `CCOC(=O)C1CCCN(C(c2ccccn2)c2c(C)[nH]c3ccccc23)C1` (stereo not given) → 1.79
KCNQ2 block baseline result of `Cc1c(-c2cc(C(=O)O)on2)cnn1C` → 0.52
KCNQ2 block baseline result of `O=[N+]([O-])c1ccc(N2CCN(Cc3ccccc3)CC2)c(S(=O)(=O)N2CCOCC2)c1` → 0.51
KCNQ2 block baseline result of `O=c1cc(Nc2ccc3c(c2)OCCO3)[nH]c(=O)n1Cc1ccc(F)cc1` → -0.16

Next structures.
cpd	canonical_smiles	KCNQ2 block baseline	KCNQ2 block
26	CN(C)C(CNc1nnnn1-c1ccccc1)c1ccco1 (stereo not given)	0.01	i
27	CC(NC(=O)CSCc1ccc(Br)cc1)c1ccccc1 (stereo not given)	0.44	i
28	O=C1CC(c2ccccc2)CC(O)=C1C=Nc1cccc(Cl)c1 (stereo not given)	-0.67	i
29	Cc1ccc(Cc2c(C)nc3nc(SCC(=O)NCCCN4CCOCC4)nn3c2C)cc1	0.11	i
30	CN(C)CCNC(=O)/C(=C/c1ccc(-c2cccc(Cl)c2)o1)NC(=O)c1ccccc1	-0.26	i
31	C/C(=N\NC(=O)c1ccccc1F)c1ccc(C#N)cc1	-0.02	i
32	C=CCSC1=C(C#N)C(c2ccccc2C)CC(=O)N1 (stereo not given)	0.02	i
33	CC1CCN(C(=O)CCNC(=O)Cn2cnc3sc4c(c3c2=O)CCCC4)CC1	0.18	i
34	O=C1C(C=NCc2ccccn2)=C(O)c2ccccc21	-2.03	i
35	Nc1nc(Br)c2c(F)cccc2c1-c1ccccc1	-0.03	i
36	CN(NS(=O)(=O)c1ccc(Cl)cc1)c1cnn(C)c(=O)c1Cl	-0.79	i
37	FC(F)(F)c1nc2ccccc2nc1N/N=C/c1ccc(Cl)cc1	-1.12	i
38	O=C(NCCCCNC(=O)C1CCCC1)C1CCCC1	0.01	i
39	O=C(NC1CCN(C(=O)NCc2ccccc2)CC1)c1cccc(F)c1	-0.47	i
40	O=C(Oc1coc(CSc2ncccn2)cc1=O)c1ccc(Br)o1	-0.03	i
41	CCCCS(=O)(=O)Nc1ccc2ncn(C)c(=O)c2c1	2.32	i
42	CC(C)(C)NC(=O)CSc1nc(O)cc(=O)n1-c1ccccc1	-1.03	i
43	O=C(Nc1ccccc1Cc1ccccc1)c1ccccc1NS(=O)(=O)c1ccc(Cl)s1	-1.63	i
44	O=C(Nc1ccccc1)C1CCN(C(=O)c2ccccc2)CC1	1.73	i
45	Cc1onc(-c2ccccc2Cl)c1C(=O)Nc1ccc(-c2nnc3n2CCCCC3)cc1	-2.83	i
46	COCCNC(=O)C1c2cc(OC)c(OC)cc2C(=O)N(C)C1c1cccnc1 (stereo not given)	0.32	i
47	CC(C)CCNC(=O)c1ccc2c(Cl)c3c(nc2c1)CCC3	0.86	i
48	O=C(NNC1=NS(=O)(=O)c2ccccc21)c1ccccc1Cl	1.72	i
49	O=C(NCc1ccncc1)c1ccccc1Nc1ccc(SC(F)F)cc1	-0.51	i
50	COc1ccc(C2c3[nH]c4ccccc4c3C[C@H]3C(=O)N(C4CCN(Cc5ccccc5)CC4)CC(=O)N23)cc1OC (stereo not given in full)	0.42	i
51	Cc1cccc(/C=N/NC(=O)CNc2cccc3ccccc23)n1	-0.29	i
52	O=C(NC12CC3CC(CC(C3)C1)C2)c1cccnc1	0.47	i
53	Cc1cc(C)n(C(=O)CNc2ccccc2Cl)n1	0.93	i
54	CCN(CC(=O)Nc1ccc(NC(C)=O)cc1)C(=O)/C=C/c1cn(Cc2ccccc2)nc1-c1cccnc1	0.09	i
55	COc1ccccc1OCC(=O)Nc1sc2c(c1C(=O)NCC1CCCO1)CCC2 (stereo not given)	-1.2	i
56	CCn1c(SC)nnc1-c1c[nH]c2ccccc12	1.52	i
57	Cc1c(Br)c([N+](=O)[O-])nn1CC(=O)NCCc1c[nH]c2ccccc12	-0.77	i
58	O=C(c1cc(Cl)c(=O)n(Cc2ccc(Cl)cc2)c1)N1CCOCC1	0.67	i
59	COc1ccccc1NC(=O)c1oc2ccccc2c1NC(=O)c1cc(OC)c(OC)c(OC)c1	0.67	i
60	CCCn1c(N)c(N(CCOC)C(=O)c2ccc([N+](=O)[O-])c(C)c2)c(=O)[nH]c1=O	-0.71	i
61	Cc1nn(C)c(Cl)c1/C=N/OC(=O)c1ccccc1	1.5	i
62	O=C1CC(c2cccc(Cl)c2)Cc2nc(N3CCN(c4ccccc4)CC3)ncc21 (stereo not given)	0.03	i
63	COc1cc(C2C(C#N)=C(N)Oc3cc(C)oc(=O)c32)cc2c1OCO2 (stereo not given)	-1.03	i
64	CN1CCN(S(=O)(=O)c2cccc(C(=O)Oc3cccc(Br)c3)c2)CC1	-0.03	i
65	CCS(=O)(=O)N1Cc2ccccc2CC1C(=O)Nc1ccc(C)cc1 (stereo not given)	0.51	i
66	COc1ccc(NC(=O)CN(C)C(=O)c2cc(-c3ccco3)nc3ccccc23)cc1	1.42	i
67	CC(c1ccccc1)C1C(C#N)=C(N)OC2=C1C(=O)CCC2 (stereo not given)	-0.85	i
68	O=C(NCCc1ccccc1)C(=O)c1c(-c2ccccc2)cc2ccccn12	2.35	i
69	Cc1cccc(S(=O)(=O)c2c(N)n(/N=C/c3cccnc3)c3nc4ccccc4nc23)c1	-1.68	i
70	CN(C)C(=O)c1cc(C(=O)Cc2ccccc2)c[nH]1	1.56	i
71	O=C(COC(=O)c1ccccc1NCc1ccco1)Nc1ccc2c(c1)OCO2	-1.27	i
72	COc1cccc(/C=C2\Oc3cc(OCC(=O)N4CCC[C@H]4C(=O)O)ccc3C2=O)c1	-0.24	i
73	CS(=O)(=O)Nc1nc2n(n1)C(c1ccccc1)C=C(c1ccc(Br)cc1)N2 (stereo not given)	6.53	i
74	CCN1CCN(c2nc3c(C)cccn3c(=O)c2/C=C(\C#N)C(=O)NCCOC)CC1	-1.53	i
75	CC(C)Oc1cc(C(=O)NC2CCCCC2)c2ccccc2n1	-0.64*	-6.03*

Other records.
cpd	canonical_smiles	KCNQ2 block baseline	KCNQ2 block
76	O=c1c2oc3ccccc3c2ncn1Cc1ccc(F)cc1	0.22	i
77	CC(C)(C)OC(=O)NCCCC[C@H](NC(=O)c1nc[nH]c1C(=O)NC1CCN(C(=O)OC(C)(C)C)CC1)C(=O)OC(C)(C)C	0.67	i
78	CCCCC1=CC2=CC(=O)C(C)(OC(=O)CC)C(=O)C2=CN1c1ccccc1 (stereo not given)	-0.14	i
79	O=C(c1csc2c1CCCCC2)N1CCN(c2ncccn2)CC1	-0.41	i
80	Cc1cc(NC(=O)CCN2CCCCC2)ccc1Br	0.09	i
81	CCCOc1ccc(NC(=O)C2CC(=O)N3CCCN=C3S2)cc1 (stereo not given)	-0.9	i
82	CCCN(CC(=O)Nc1ccccc1OC)C(=O)c1cc(-c2cccs2)nn1-c1ccccc1	-2.04*	-9.27*
83	CC(C)N1C(=O)c2ccc(C(=O)O)cc2C1=O	-0.73	i
84	Cc1cccc(C)c1NC(=O)c1cccc2c1-c1ccccc1C2=O	0.53	i
85	O=C(NCc1ccccn1)c1nc(Cn2cc([N+](=O)[O-])cn2)no1	-0.75	i
86	CCc1nc2ccccc2c(C(=O)Nc2cc(C)ccc2C)c1C	-0.71*	-7.46*
87	C[C@@H](C(=O)Nc1ccc2c(c1)OCCO2)n1c(=O)[nH]c2ccccc2c1=O	0.89	i
88	CC(C)N(Cc1nc(-c2ccc(Cl)cc2)no1)C(=O)CN(C)S(=O)(=O)c1ccc(Cl)cc1	-0.48	i
89	CCN(CC)Cc1cc(Nc2ccnc3cc(Cl)ccc23)ccc1O	0.22	i
90	Cc1ccnc(N2CCN(C(=O)CSc3nc4ccccc4nc3N3CCC(C)CC3)CC2)c1	1.03	i
91	Cc1cc(C(=O)CSc2nc3ccc(Cl)cc3[nH]2)c(C)n1C	-1.61*	-6.34*
92	COC(=O)c1ccc(NC(c2ccc(Cl)cc2)P(=O)(OC)OC)cc1 (stereo not given)	0.26	i
93	Cc1ccc(C2=NN3C(C(=O)c4ccccc4)Oc4ccccc4C3C2)cc1 (stereo not given)	0.36	i
94	CCc1ccc(-c2cc(C)no2)cc1S(=O)(=O)Nc1ccc(C)cn1	0.51	i
95	CCCC(=O)NC1C2CC3CC(C2)CC1C3 (stereo not given)	1.09	i
96	COC(=O)c1ccccc1NC(=O)/C=C/C(=O)O	1.14	i
97	O=C(CCN1C(=O)C2CCCCC2C1=O)N1CCN(S(=O)(=O)c2ccccc2)CC1 (stereo not given)	0.59	i
98	O=C(C1COc2ccccc2O1)N1CCN(Cc2ccccc2)CC1 (stereo not given)	-0.04	i
99	Cc1ccccc1NC(=O)CSc1nnc(-c2ccoc2C)n1CCc1ccccc1	1.26*	-5.55*
100	Cc1ccc(C)c(NC(=O)C2CCCN(S(=O)(=O)c3c(C)nn(C)c3C)C2)c1 (stereo not given)	0.42	i
101	Cc1c(C(=O)N(C)CCC#N)oc2ccc(S(=O)(=O)N3CCOCC3)cc12	-0.47	i
102	Cc1ccc(C(=O)C2=C(O)C(=O)N(Cc3ccccc3)C2c2cccnc2)o1 (stereo not given)	1.95	i
103	CCCCCC(=O)NNC(=S)NC(=O)c1cccc([N+](=O)[O-])c1	-0.65	i
104	O=C(c1ccccc1)C1CN(c2ccccc2)CC1c1ccc(Cl)cc1 (stereo not given)	-0.02	i
105	O=C1Nc2ccccc2S/C1=C/NCc1ccccc1Cl	1.13	i
106	O=C(CCC(=O)N1CCN(c2ccc(F)cc2)CC1)c1ccc(Cl)cc1	-0.12	i
107	Cc1ccc2nc(SCc3nnc(-c4ccccc4)o3)[nH]c2c1	-0.81	i
108	COc1ccc(-c2cc(=O)oc3cc(OC(C)C(=O)NCc4ccccn4)ccc23)cc1 (stereo not given)	-0.12	i
109	COc1ccc(C(=O)/C=C/c2cn(CC(O)CN3CCN(C)CC3)c3ccccc23)cc1OC (stereo not given)	6.91	i
110	COC(=O)c1c(NC(=O)COC(=O)c2ccc(NC(=O)CC#N)cc2)sc2c1CCCCC2	0.25	i
111	COc1ccc(OCC(=O)NC2CCCCCCC2)cc1	0.23	i
112	Cc1ccc(/C(N)=N/OC(=O)Cc2ccccc2)cc1	-0.49	i
113	COc1cc2c(cc1OC)CN(C(=O)NS(=O)(=O)c1ccc(C)cc1)CC2	1.52	i
114	COc1cc(C(=O)NCCOC(=O)c2cccc(N(C)C)c2)cc(OC)c1OC	-0.83	i
115	O=c1[nH]c2ccccc2[n+]([O-])c1-c1ccccc1	-0.96	i
116	NC(=O)C1CCN(c2nnnn2-c2ccccc2)CC1	0.4	i
117	COC(=O)/C(=C\C(=O)c1ccccc1)Nc1ccc(OC)cc1	0.7	i
118	Cn1nc(CC(=O)Nc2cccnc2N2CCOCC2)c2ccccc2c1=O	0.65	i

Profiles, looked up by structure. Order of screens: KCNQ2 block baseline | KCNQ2 block
Entry for O=C1CC(c2cccc(Cl)c2)Cc2nc(N3CCN(c4ccccc4)CC3)ncc21 (stereo not given) → 0.03 | i
Entry for CCCCC1=CC2=CC(=O)C(C)(OC(=O)CC)C(=O)C2=CN1c1ccccc1 (stereo not given) → -0.14 | i
Entry for O=C(COC(=O)c1ccccc1NCc1ccco1)Nc1ccc2c(c1)OCO2 → -1.27 | i

A different layout for part of the listing above.
Screens in order: KCNQ2 block baseline	KCNQ2 block
[103] CCCCCC(=O)NNC(=S)NC(=O)c1cccc([N+](=O)[O-])c1
  -0.65	i
[104] O=C(c1ccccc1)C1CN(c2ccccc2)CC1c1ccc(Cl)cc1 (stereo not given)
  -0.02	i
